Screening data: PubChem, ICCB-Longwood Screening Facility, Harvard Medical School
AID504770: growth inhibitors of E. coli YBA685 in a screen for V. cholerae RctB (chromosome II replication) inhibitors; E. coli YBA685 rctB-dependent plasmid, OD600 growth, 3 h; stronger effect = lower value; AID 504770; z-score (no concentration beside the values); 0.27% of 130,000 active;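 active = z-score under -2 on both plates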;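 note: wells of about 30 µL received 100 nL stock; score is relative to mean and SD of the test wells; the first replicate is given; strong numbers were not always called active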
Ba CapD inh: inhibitors of Bacillus anthracis CapD enzyme; purified CapD enzyme, fluorescence intensity read-out; stronger effect = lower value; some hits fall short of the stated cut; z-score (test concentration not listed); 0.23% of 140,000 active;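 active = z-score under -4 in either of two replicates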;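 note: stock transfer was 100 nL into about 40 µL; score is relative to mean and spread of the plate; one replicate is shown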
* hit, by the source's call; x = not tested or not shown; & = joins results of further samples. Compounds as they come; 0.37% or so of the library scored in one or more.

Value order: AID504770	Ba CapD inh
> O=CC12c3ccccc3C(c3ccccc31)C1C(=O)N(c3ccccc3[N+](=O)[O-])C(=O)C12 (configuration not stated)
    x	0.665
> CCNC(=O)Nc1ccc2[nH]c(C)cc2c1
    x	-0.075
> FC(F)(F)c1ccc(N2CCCN(C(=S)Nc3cccnc3)CC2)nc1
    1.05	-0.005
> CC(C)NCCc1c[nH]c2ccccc12
    2	-0.215
> O=S(=O)(c1ccc(Cl)cc1)N(Cc1ccccc1)Cc1ccco1
    -0.65	x
> N#Cc1ccc(C(=O)Nc2ccn(-c3ccccc3)n2)cc1
    -0.85	-0.81
> COC(=O)C1CCN(C(=O)/C=C/c2ccccc2)CC1
    -0.95	x
> CN(C)CCNC(=O)c1ccc2c(c1)N(Cc1ccccc1)CCS2
    -0.7	82.6
> CC(=O)Nc1ccc(S(=O)(=O)n2c(SCc3ccccc3F)nc3ccccc32)cc1Cl
    x	0.11
> COc1ccc(NC(=O)CS(=O)(=O)c2ccc(Br)cc2)cc1
    x	0.165
> Cc1cc(C(=O)NN2CCN(C)CC2)cs1
    -1.65	-0.36
> Oc1c(Cl)cc(Cl)cc1C=Nc1ccc2nc[nH]c2c1
    x	-1.13
> CCCCc1ccc(N2C(=NC(=O)CC)SC3CS(=O)(=O)CC32)cc1 (configuration not stated)
    0.55	x
> Clc1ccc(C(OCCN2CCCCC2)c2ccccc2)cc1 (configuration not stated)
    -0.65	-0.275&-1.14
> Fc1ccccc1NC(=S)N1CCCCC1
    x	-0.155
> N#Cc1cnn(-c2ccc(F)cc2)c1NC(=O)C1CCCCC1
    -0.4	0.105
> Cc1oc2ccc(O)c(CN3CCCC3)c2c1C(=O)NC1CCCCC1
    0	0.145
> O=[N+]([O-])c1c(Nc2ccc(-c3ccccc3)cc2)cc(N2CCOCC2)c2nonc12
    x	-0.025
> NNC(=O)c1cccc(Cn2cccn2)c1
    -0.1	0.32
> O=C(N/N=C/c1c(Cl)cccc1Cl)N/N=C/c1c(Cl)cccc1Cl
    x	0.08

Brought forward from above: 2 entries; new compounds follow.
Value order: AID504770	Ba CapD inh
> NNC(=O)c1cccc(Cn2cccn2)c1
    -0.1	0.32
> O=C(N/N=C/c1c(Cl)cccc1Cl)N/N=C/c1c(Cl)cccc1Cl
    x	0.08
> Cc1cccc(-n2ncc(C(=O)NC3CC3)c2-n2cccc2)c1
    1.7	-3.01
> Cc1c(CNCCc2cccs2)c(C(=O)O)c(C)n1Cc1c(F)cccc1Cl
    -0.8	0.21
> COc1ccc(-n2nc3c(c2NC(=O)C2CCCCC2)CSC3)cc1
    1.25	0.315
> Cc1ccc(S(=O)(=O)C2(C(=O)N3CC4CC(C3)c3cccc(=O)n3C4)CC2)cc1 (configuration not stated)
    -0.4	0.385
> Cc1c(Cl)sn(-c2ccc(Cl)cc2)c1=O
    -5.75*	0.23
> O=C(Nc1nnc(-c2ccccc2)s1)c1ccccc1C(F)(F)F
    0.05	0.51
> CCN(CC)CCCNS(=O)(=O)c1ccc(NC(C)=O)cc1
    x	-0.15
> CCCOc1ccc(Oc2nc(N(C)C)nc(N3CCCC3)n2)nn1
    -1.4	-0.845
> Clc1ccccc1N1CCN(c2ncnc3c2cnn3-c2ccccc2)CC1
    x	-1.09
> COc1ccc(CCNC(=O)C(C#N)c2nc3ccccc3nc2N2CC(C)OC(C)C2)cc1OC (configuration not stated)
    1.35	x
> CCCCCCCCCC(=O)Nc1ccc(C(=O)Nc2cccc3c2C(=O)c2ccccc2C3=O)cc1
    x	0.16
> CCC1=NN(C(=O)Cc2ccc(C)cc2)C(O)(c2ccc(Br)cc2)C1 (configuration not stated)
    x	-0.595
> Cc1cc(C)c(-c2ccc3cccnc3n2)c(O)c1
    x	-0.85
> N#CCSc1nc2c(sc3ccccc32)c(=O)n1CCO
    0.55	2.43
> C=CCNc1ncnc2c1c(-c1ccccc1)cn2-c1cccc(C(F)(F)F)c1
    -1.05	-1.02
> COc1ccc(N(CC(=O)Nc2ccc(Br)cc2)S(=O)(=O)c2ccc(OC)c(OC)c2)cc1
    x	-0.33
> O=C(Cc1c[nH]c2ccccc12)OCC(=O)N1CCCCC1
    -0.7	x
> Cc1[nH]c2ccccc2c1SCCNC(=O)C1CC1
    -0.45	-0.255
> CN(C)c1ccc(C(=O)N/N=C/c2ccnc3ccccc23)cc1
    x	-0.655
> O=C(C1CCCCC1)N(c1ccc2oc3c(c2c1)CCCC3)S(=O)(=O)c1cccs1
    -0.35	-0.36
> COc1ccccc1NC(=O)C1OC2OC3(CCCCC3)OC2C2OC3(CCCCC3)OC12 (configuration not stated)
    x	-0.41
> Cc1ccc(S(=O)(=O)Nc2nc(O)c(C3=c4ccccc4=NC3=O)s2)cc1
    -0.4	x
> CCN(CC)CC(O)COC1C2CC3CC(C2)CC1C3 (configuration not stated)
    -0.35	0.445
> Cc1ccc2ccccc2n1
    0.15	x
> Cc1ccc(OCC(O)CNCc2ccc(F)cc2)cc1 (configuration not stated)
    -0.55	x
> O=C1C(c2ccccc2)=C(c2ccccc2)C(=O)N1O
    1.45	x
> CC(=O)Oc1cccc(/C=c2/sc3nc(-c4ccc(F)cc4)nn3c2=O)c1
    -0.7	-0.4
> O=C(NNC(=O)c1ccncc1)OCc1cc2c(cc1[N+](=O)[O-])OCO2
    x	0.15
> O=C(Cn1cnc([N+](=O)[O-])n1)Nc1cc(Oc2cccc(C(F)(F)F)c2)cc([N+](=O)[O-])c1
    x	-0.37
> COc1cc(/C=C2\SC(=Nc3cc(C)cc(C)c3)NC2=O)ccc1O
    x	-0.065
> O=S(=O)(N1CCCCC1)N1CCN(CC(O)COc2ccc3cc(Br)ccc3c2)CC1 (configuration not stated)
    -0.15	0.1
> Cc1ccc2oc(=O)c3cnn(CC(=O)N4CCC(C)CC4)c3c2c1
    -0.4	-0.01
> O=C(Cc1c[nH]c2ccccc12)Nc1cccc(-n2cnnn2)c1
    0	x
> CCN(CC)C(=O)c1c(C)oc2ncn(CC(C)C)c(=O)c12
    0.15	0.28
> C=CCNC(=O)C1CCN(S(=O)(=O)N2CCC(C)CC2)CC1
    0.7	0.185
> O=C1c2ccccc2OCC1(CO)CO
    0.4	13.5
> CCc1ccccc1Nc1nc(N)nc(COC(=O)Cn2cc(C(F)(F)F)ccc2=O)n1
    -0.65	x
> c1n[nH]c2c1CNCC2
    -0.25	-0.05
> CC(C)CNC(=O)c1ccc(CSc2ncn[nH]2)cc1
    -0.55	x
> O=C(NCCN1CCOCC1)c1ccccc1Oc1ccccc1
    -0.1	0.215

Part of the list above, set out differently:
SMILES | AID504770 | Ba CapD inh
Cc1ccc2oc(=O)c3cnn(CC(=O)N4CCC(C)CC4)c3c2c1 | -0.4 | -0.01
O=C(Cc1c[nH]c2ccccc12)Nc1cccc(-n2cnnn2)c1 | 0 | x

Additional records follow.
Value order: AID504770	Ba CapD inh
> CSc1ncc(Cl)c(C(=O)Nc2ccc(S(=O)(=O)N3CCCCC3)cc2)n1
    0.6	-0.235
> COC(=O)c1ccc(COCOCc2ccc(C(=O)OC)o2)o1
    x	-2.7
> CCOc1ccc(S(=O)(=O)NCc2cn3ccccc3n2)cc1
    -0.15	x
> COc1ccc(S(=O)(=O)SC)cc1N
    -1.2	x
> N#Cc1c(NC(=O)CON2C(=O)CCC2=O)sc2c1CCCC2
    -0.15	-0.48
> O=C(Cn1c(=O)n(Cc2ccco2)c(=O)c2oc3ccccc3c21)NCc1ccccc1
    -0.6	5.29
> Brc1ccc(CN2CCC(N3CCCCC3)CC2)cc1
    -0.5	0.095
> O=C(COc1ccccc1Cl)N/N=C/c1cc(F)cc(C(F)(F)F)c1
    x	-0.385
> CC(C(=O)N(C)Cc1ccccc1)N1CCN(S(=O)(=O)c2ccccc2C(F)(F)F)CC1 (configuration not stated)
    1.35	x
> CC(=O)Nc1cccc(NC(=O)c2cccnc2)c1
    -0.55	-0.51
> O=S(=O)(NCC1CCCO1)c1ccc(Br)s1 (configuration not stated)
    -0.55	1.35
> COc1cc(/C=C2\CCCCC2=O)cc(OC)c1OC
    -0.45	-0.83
> NC(=O)NCc1cccs1
    x	-0.775
> Cc1cc2ccccn2c1C(=O)Nc1ccccc1
    0.1	37.5
> CCOC(=O)c1ccc(NC(=O)c2cc3cc(Cl)ccc3oc2=N)cc1
    -0.35	x
> COc1ccc(CC(=O)NC2CC2)cc1OC
    0.3	0.225
> CCC1(CC)Cc2ccccc2-c2[nH]c(=S)n(Cc3ccccc3)c(=O)c21
    0.55	-0.665
> Cc1ccc(S(=O)(=O)C2(C(=O)Nc3ncccc3C)CC2)cc1
    -0.8	0.115
> Cc1ccc2cc(CCNC(=O)c3ccccc3)c(=O)[nH]c2c1
    2.1	1.23
> Cn1cc(Cl)c(C(=O)Nc2nc3ccc([N+](=O)[O-])cc3s2)n1
    x	1.2
> CCOc1ccc(N=C2SCCCN2C(=O)C2=CC=CN3CCS(=O)(=O)N=C23)cc1
    -0.55	x
> O=C(Nc1ccc2nc3n(c(=O)c2c1)CCCC3)C1COc2ccccc2O1 (configuration not stated)
    -0.35	3.38
> O=C(c1cccs1)N1CC=C(c2ccccc2)CC1
    1.45	x
> COc1ccc(C2NC(=O)NC(C)=C2C(=O)OC2CCCC2)cc1Br (configuration not stated)
    x	-0.065
> O=C1CNC(=S)N1Cc1ccccc1Cl
    0.45	-0.575
> O=S(=O)(Cc1ccc(F)cc1)Cc1noc(-c2ccc(F)cc2Cl)n1
    0.25	1.34
> CCC(C)NC(=O)c1cc2cc3cc(OC)ccc3nc2o1 (configuration not stated)
    -0.1	0.285
> CC(C)(CNC(=O)c1ccc2nc[nH]c2c1)N1CCOCC1
    -0.4	x
> C/C(=N\NC(N)=O)c1ccc(C#N)cc1
    0.9	x
> CCOC(=O)C1=C(C)NC2=C(C(=O)C(C(=O)OC)C(C)C2)C1c1ccccc1 (configuration not stated)
    x	-0.425
> NNC(=O)c1nnn(-c2nonc2N)c1CN1CCCC1
    -0.6	x
> COc1ccc(C2C=C(c3cccc(Br)c3)Nc3nc4ccccc4n32)cc1 (configuration not stated)
    x	-1.02
> N#CCS(=O)c1ccccc1 (configuration not stated)
    -1.05	0.115
> COC(=O)C1=C(C)NC(=O)CC1c1ccccc1I (configuration not stated)
    -1.3	-0.375
> Nc1ccnn1-c1ccccc1
    -0.5	0.335
> CCN(CC)CC(O)Cn1c(-c2ccccc2)c(-c2ccccc2)c2ccc3ccccc3c21 (configuration not stated)
    x	18.9
> Cc1ccc(-c2nnc(Nc3ccc(S(=O)(=O)Nc4nccs4)cc3)c3ccccc23)cc1
    x	0.465
> COc1cccc(CCOC(=O)NC(C)C(=O)Nc2ccc3ccccc3c2)c1 (configuration not stated)
    x	0.025
> Cc1nc(N2CCN(C)CC2)c2c(C)c(C(=O)O)sc2n1
    x	0.565
> O=C(Oc1nsnc1N1CCOCC1)c1ccccc1
    -1.25	-2.6
> CNC(=O)c1ccc(N2CCOc3ccc(Cl)cc32)s1
    -0.1	21.5
> Cc1ccc(S(=O)(=O)CCSc2nccc(-c3cccs3)n2)cc1
    0.35	6.17
> FC(F)(F)c1nnc(Nc2ccc(Cl)cc2)s1
    x	-0.09
> CCOC(=O)N1CCN(c2ccnc3cc(Cl)ccc23)CC1
    -0.05	x
> O=C(ON1C(=O)c2ccccc2C1=O)c1ccc(F)cc1
    -1.15	2.73
> O=C(N/N=C/c1ccnc2ccccc12)c1ccccc1CCc1ccccc1
    x	-0.195
> Oc1ccc(-c2n[nH]c(C(F)(F)F)c2-c2cnn(-c3ccccc3)c2)c(O)c1
    0.3	0.075
> CCOc1ccc(N=C2SC(C(=O)Nc3ccc(C)c(Cl)c3)CC(=O)N2C)cc1 (configuration not stated)
    x	-0.6
> O=C1NC(=O)C(=Cc2ccc(OCc3cccc(Cl)c3)cc2)C(=O)N1
    x	-0.285
> CCc1cccc(N(c2nc(-c3ccc(OC)c(OC)c3)no2)c2nc(-c3ccc(OC)c(OC)c3)no2)c1
    1.95	-0.575
> COc1ccc(/C=C/C(=O)O)cc1S(=O)(=O)N(C)CCO
    0.85	2.49
> CCN(CC)C(=O)c1ccccc1NC(=O)Cc1ccccc1
    0.35	0.265
> CCCC1=C(C(=O)OCC)C(c2cccc([N+](=O)[O-])c2)C(C#N)=C(N)O1 (configuration not stated)
    x	-0.51
> C/C(CCn1c(=O)sc2ccccc21)=N\NC(N)=S
    -1	-0.11
> C=C(C)c1cccc(C(C)(C)NC(=O)Nc2ccc(OC)nc2)c1
    1.95	x
> O=C1NCCC/C1=N/Nc1ccccc1
    -0.1	-3.88*
> O=C(Cc1cc(=O)[nH][nH]1)N/N=C/c1cccc(Cl)c1Cl
    0.3	0.02
> Cc1ccc(-c2nc3scc(-c4ccc(Br)cc4)c3c(=O)o2)cc1
    x	-0.095
> N#CCc1ccc(-c2nnco2)cc1
    x	0.92
> COc1cc(OC)nc(CN2CCN(C(c3ccccc3)c3ccccc3)CC2)n1
    x	-0.555

Next results follow:
Value order: AID504770	Ba CapD inh
> C/C(=N/NC(=S)Nc1ccccc1)c1ccc2c(c1)OCO2
    1.5	-1.05
> O=C(CCOC(Cc1cnccn1)c1ccc(C(F)(F)F)cc1)NCCN1CCOCC1 (configuration not stated)
    x	0.145
> Cc1onc(-c2ccccc2)c1C(=O)NNc1ccccc1C(F)(F)F
    0.8	0.795
> S=C(NN=C1CSc2sc(=S)sc2SC1)Nc1ccccc1
    x	-0.305
> COc1nc(Oc2ccc(C(=O)OCC(N)=O)cc2)nc(N(C)C)n1
    x	-0.355
> Cc1ccc(-c2csc(NC3OC(=O)c4ccccc43)n2)cc1 (configuration not stated)
    0.45	0.09
> N#Cc1cccc(NC(=O)c2ccc3ncsc3c2)c1
    -0.2	x
> Cc1ccc2oc(=O)c3cnn(CC(=O)N(CC(C)C)CC(C)C)c3c2c1
    -0.45	-0.09
